Compound activity from PubChem BioAssay.
A1 inh = caspase 3/7 activation in MEF A1-2A-BIM cells, primary screen, A1 inhibitor project, cell-based, luminescence, HTS; AID 2462, 2010; Caspase-Glo 3/7 luminescence, 3 h; percent of clofoctol response, vehicle zero; 0.066% of 330,000 active; caspase activation, % (concentration not given with the values);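 active = over half of replicate activation scores above 10%, or exactly half above 10 with the replicate mean above 10; inconclusive = replicate mean below 10 yet half the replicates above 10; inactive = over half of replicates below 10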;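 note: wells of about 30 µL received 50 nL stock; many hits fall short of the cut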
Calb FLC = C. albicans growth inhibition with fluconazole, primary screen, CaCi-2 strain, Alamar Blue fluorescence | AID 1979, 2009 | growth inhibition, % (test concentration not listed) | C. albicans CaCi-2 (fluconazole-resistant clinical isolate) + fluconazole, 48 h | 0.57% of 300,000 active;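 active = most replicates above 75%; inconclusive = exactly half above 75%; inactive = most below 75%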;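 note: all wells also contain fluconazole at 8 µg/ml as a sub-toxic cotreatment; 0% = median of DMSO wells and 100% = median of geldanamycin control wells; wells of about 8 µL received 7.5 nL stock; the first replicate is given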
T cruzi inh = inhibitors of intracellular T. cruzi growth, primary screen, luminescence, NIH3T3 host cells. T. cruzi beta-gal in NIH3T3, 90 h. inhibition, % (no concentration beside the values). 1.4% of 300,000 active;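 active = mean inhibition across valid replicates above about 55%, limit read from the data; inconclusive = mean below that limit but half or more replicates reach it; inactive = mean below it, under half of replicates reach it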;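 note: signal also drops with host cell toxicity which is not excluded here; 0% = plate median of DMSO wells and 100% = zero luminescence signal; higher percent means less beta-gal luminescence so fewer parasites; stock transfer was 50 nL into about 50 µL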
MLL AF4-AF9 inh = inhibitors of AF4 peptide binding to AF9, primary screen, biochemical, AlphaScreen, biotin-AF4 peptide, FLAG-AF9, single point; Protein AF-9 (Homo sapiens), P42568; inhibition, % at 10 µM; 0.47% of 350,000 active;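 active = every replicate reaching a set inhibition limit, whatever the replicate mean, cut at about 25% in these data; inconclusive = mean inhibition reaches that limit but some replicates miss it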;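 note: 0% = plate neutral control median and 100% = total signal loss; the record names both 10 and 1 µM as test concentration; the first replicate is given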
RanGTP-Impb inh = inhibitors of RanGTP-importin-beta interaction, primary screen, biochemical, FRET, CFP-Ran, YFP-importin-beta, homogeneous; Ran GTPase (GTP-bound) - importin-beta complex; cell-free CFP-Ran/YFP-importin-beta FRET ratio; inhibition, % (no concentration beside the values); 1.1% of 300,000 active; AID 2216, 2009;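 active = most replicates above 15%; inconclusive = exactly half above 15%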;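 note: 0% = DMSO wells and 100% = Ran loaded with GDP instead of GTP; wells of about 40 µL received 100 nL stock; the first replicate is given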
Vif A3G = inhibitors of Vif binding to APOBEC3G peptide, primary screen, biochemical, TR-FRET, GST-Vif 1-94, biotin-A3G peptide, dose response retest (AID 1117319); TR-FRET GST-Vif / biotin-A3G peptide binding; higher % means a stronger effect; test concentration not given here; strong numbers were not always called active; inhibition, %, or IC50 in µM where a hit was titrated; 0.57% of 260,000 active;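 active = above the screen mean plus three standard deviations and confirmed in dose response; inconclusive = results disagree or hit not tested in dose response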;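 note: Vif residues 1-94 fused to GST binding biotinylated APOBEC3G peptide 110-148; 0% = full assay without inhibitor and 100% = GST in place of GST-Vif; retest series ran down from 100 µM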
Beta apoptosis = inhibitors of cytokine-induced beta cell apoptosis, primary screen, luminescence; INS-1E cytokine-induced death, ATP luminescence, 48 h; percent of positive-control rescue, neutral wells zero; protection from apoptosis, % (concentration not given with the values); 0.8% of 300,000 active; AID 435005, 2010;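 active = all replicates at 75% or more, or half of them and the mean; inconclusive = half reach 75% but not the mean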;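 note: 0% = cytokine-treated negative control wells and 100% = positive control rescue; higher means more ATP so stronger rescue from cytokine killing; wells of about 40 µL received 100 nL stock; the first replicate is given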
LANA-H2B inh = blockers of LANA interaction with H2A/H2B – biochemical, FP readout, HTS, primary screen | Protein LANA1 (Human herpesvirus 8 type P (isolate GK18)), Q9QR71 | cell-free LANA-H2A/H2B peptide, fluorescence polarization | inhibition, % (test concentration not listed) | 0.6% of 320,000 active; in the data active = inhibition mostly above about 10%, no sharp cut-off; inactive = mostly below about 6.7%;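 note: stock transfer was 7.5 nL into about 10 µL; 0% = median of vehicle wells and 100% = median of positive control wells; one replicate is shown; the record names a cut of 25% in any replicate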
Target sequence (Q9QR71 whole entry, looked up): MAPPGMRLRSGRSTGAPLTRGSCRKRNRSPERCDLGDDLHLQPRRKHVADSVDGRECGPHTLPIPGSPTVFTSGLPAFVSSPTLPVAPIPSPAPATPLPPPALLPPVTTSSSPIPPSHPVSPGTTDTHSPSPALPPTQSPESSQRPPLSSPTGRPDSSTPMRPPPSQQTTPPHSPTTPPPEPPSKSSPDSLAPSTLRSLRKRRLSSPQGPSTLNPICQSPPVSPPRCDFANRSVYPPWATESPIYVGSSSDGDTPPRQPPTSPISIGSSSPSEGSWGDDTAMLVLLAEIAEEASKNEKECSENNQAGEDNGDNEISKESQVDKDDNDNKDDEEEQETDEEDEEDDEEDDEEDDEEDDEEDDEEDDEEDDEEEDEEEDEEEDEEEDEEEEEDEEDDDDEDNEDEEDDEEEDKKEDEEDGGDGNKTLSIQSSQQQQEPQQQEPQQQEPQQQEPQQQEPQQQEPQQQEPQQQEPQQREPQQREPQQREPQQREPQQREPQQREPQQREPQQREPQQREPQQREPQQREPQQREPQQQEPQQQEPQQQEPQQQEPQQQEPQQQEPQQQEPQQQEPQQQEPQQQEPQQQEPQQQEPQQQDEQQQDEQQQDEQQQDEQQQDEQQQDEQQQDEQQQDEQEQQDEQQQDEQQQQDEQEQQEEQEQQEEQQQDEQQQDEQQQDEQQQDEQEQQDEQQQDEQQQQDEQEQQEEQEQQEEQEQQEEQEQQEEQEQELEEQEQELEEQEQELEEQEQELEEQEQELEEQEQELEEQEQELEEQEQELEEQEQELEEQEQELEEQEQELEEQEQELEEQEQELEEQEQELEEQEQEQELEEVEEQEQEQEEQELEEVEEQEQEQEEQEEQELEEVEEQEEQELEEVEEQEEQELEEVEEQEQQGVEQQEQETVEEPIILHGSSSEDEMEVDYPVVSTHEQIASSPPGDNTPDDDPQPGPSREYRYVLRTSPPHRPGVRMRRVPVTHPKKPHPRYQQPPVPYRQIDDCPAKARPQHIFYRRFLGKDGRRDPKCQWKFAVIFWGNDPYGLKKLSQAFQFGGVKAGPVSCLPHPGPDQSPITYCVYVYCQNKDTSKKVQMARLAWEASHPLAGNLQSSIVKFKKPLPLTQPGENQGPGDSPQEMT
* = called active by the depositor; ? = inconclusive; / = not tested or not shown; & = joins results of further samples.

SMILES	A1 inh	Calb FLC	T cruzi inh	MLL AF4-AF9 inh	RanGTP-Impb inh	Vif A3G	Beta apoptosis	LANA-H2B inh
CC(NC(=O)C1CCCN1S(=O)(=O)c1cccc2cccnc12)c1ccccc1 (stereo not drawn)	-0.2	2	-10	-4.1	2.3	1%	-4	-0.4
Cc1ccc(N2C(=O)NC(NC(=O)c3ccc(Cl)cc3)(C(F)(F)F)C2=O)cc1 (stereo not drawn)	0.9	-23	-3	/	-4.2	/	-4	-4.2
Cc1ccsc1/C=C/c1n[nH]c(=O)c(C#N)c1C	-0.1	9	-11	-1.1	5.7	/	-4	-2.5
COc1ccc(N(C(=O)c2snc(C(N)=O)c2N)C(C(=O)NCC2CCCO2)c2ccc3ncccc3c2)cc1OC (stereo not drawn)	-0.1	18	-1	3.4	-2.1	-5%	-3	-6.8
O=C(NCC12CC3CC(CC(C3)C1)C2)c1nn2cccnc2c1Cl	0.8	-8	5	/	-1.7	4%	0	-6.7
Cc1onc(-c2ccccc2)c1C(=O)NCCc1ccc(Cl)cc1	0.3	-8	-10	/	-1.5	-1%	-13	-5.2
CCCn1c(-c2ccc(OC)cc2)nc2c(=O)n(C)c(=O)[nH]c21	-0.1	9	-4	/	-0.2	6%	0	-7.8
Oc1cccc(NC(=S)Nc2ccc(SC(F)F)cc2)c1	0.3	4	-4	2.1	-8.2	/	3	-8.0
FC(F)(F)c1cc(Sc2ccccc2)nc(-c2ccccn2)n1	-0.4	24	-11	/	-1.2	1%	-2	3.0
Cc1cc(C)c2cc3c(N)c(C(=O)Nc4c(C)[nH]c(=O)[nH]c4=O)sc3nc2c1	1.1	2	-9	/	1.5	/	19	1.6
CCOC(=O)C(CCCCP(=O)(c1ccccc1)c1ccccc1)(NC(C)=O)C(=O)OCC	0.1	-2	11	/	1.0	-2%	-9	-4.0
Cc1nn(-c2ccccc2)c2nc(N)c(C#N)c(-c3ccc(C(C)(C)C)cc3)c12	0.2	16	35	-3.6	-0.3	-496%	7	-6.0
Cn1c(=O)c2c(nc(-n3ccnc3)n2C)n(C)c1=O	-0.3	-5	-17	/	9.3	-2%	4	0.8
NS(=O)(=O)c1ccc(-c2ccc(C=O)o2)cc1	?	-1	-21	-4.1	-0.4	3%	-1	-4.5
COc1cccc(NS(=O)(=O)c2cc3c(cc2C)N(C(C)=O)CCO3)c1	-0.2	0	-19	-0.9	1.3	/	3	-8.4
Cc1ccc(-c2cc(-c3cccc(F)c3)n[nH]2)c(O)c1	0.1	1	6	/	5.3	14%	5	-4.4
Cc1ccc(-n2nc(C)c(C(=O)O)n2)c(C)c1	0.1	-5	3	/	0.7	24%	-5	2.2
CC(C)c1ccc2[nH]c(O)c(N=NC(=O)c3cccc(S(=O)(=O)Nc4ccccc4Cl)c3)c2c1	-0.4	2	41	-3.2	2.1	7%	0	5.5
CCS(=O)(=O)Nc1ccc(C(=O)OC)cc1	-3.6	-9	-4	/	0.3	-2%	0	3.2
Cc1ccc(NS(=O)(=O)c2ccc3c(c2)n(C)c(=O)c(=O)n3C)c(C)c1	-0.6	21	-7	-0.2	3.3	/	0	2.8
CCCCNC(=O)/C(C#N)=C/c1ccc2c(c1)OCCO2	-1.9	-4	-1	-4.2	3.9	/	1	-0.1
CCOc1ccc2nc(NCCNC(=O)C3CC3)c(C)cc2c1	2.1	-1	-9	/	-0.8	/	14	0.5
C[C@H](NC(=O)c1nc[nH]c1C(=O)NCCCCCN)C(=O)OCc1ccccc1	-0.6	-7	-15	/	-0.1	/	-9	-1.9
O=C(Nc1ccc(S(=O)(=O)Nc2ncccn2)cc1)C1=NN(c2ccccc2)C(=O)CC1	1.6	-6	-10	-5.4	5.5	?	-4	0.3
O=C(Nc1ccc(OCC(F)(F)C(F)F)cc1)c1ccncc1	-3.1	5	2	-0.1	-0.1	-4%	7	/
CCOc1ccc(Cl)cc1CNCCNCC(C)O (stereo not drawn)	0.2	0	1	/	1.3	2%	5	-0.7
CCN(CC)C(=O)CSc1nc2ccccc2c(=O)n1CCC(=O)NCc1ccc(F)cc1	0.0	-2	7	/	-1.7	0%&-2%	4	-6.6
CC1(C)CN(c2ccc(N3CC(C)(C)C3=O)cc2)C1=O	-0.1	5	6	-2.2	-1.1	2%	3	1.3
O=C1OCc2cc(-n3cccc3)ccc21	0.4	29	-1	2.8	-3.0	4%	1	-1.5
COc1ccc(S(=O)(=O)N2CCOC23CCN(C(=O)c2ccccc2Br)CC3)cc1	1.2	-3	2	1.6	-3.3	-4%	-11	-1.7
CC1=C(C(=O)N2CCCC(C(=O)c3cccc(C(F)(F)F)c3)C2)OCCO1 (stereo not drawn)	0.1	-2	4	-0.4	-2.9	1%	-4	1.9
O=C(Cc1c(C(=O)O)[nH]c2ccccc12)Nc1ccc2c(c1)OCO2	-1.0	10	-16	/	?	5%	-2	-6.7
CC(=O)c1nn(-c2ccccc2)cc1C(=O)c1ccc(Br)cc1	1.2	6	5	2.6	?	-1%	11	0.2
Cc1cc2c(c(N)n1)c(=O)oc1ccccc12	0.3	-3	18	/	3.8	0%	3	2.3
Nc1nc(SCC(=O)NCCc2ccccc2)[nH]c(=O)c1-c1ccccc1	0.1	-5	-8	-2.4	-2.8	-3%	/	-2.8
CC(=O)NC(C(=O)N1CCC(c2nc3ccccc3s2)CC1)C(C)C (stereo not drawn)	-0.1	-5	1	-3.0	0.2	/	-3	-3.6
O=C(c1ccc(NS(=O)(=O)c2ccccc2)cc1)N1CCCC1	0.9	-1	-13	/	-5.1	4%	1	-3.4
COCCCNC(=O)c1ccc(N(C)S(=O)(=O)c2ccc(OC)cc2)cc1	-0.1	12	-2	/	-2.3	-2%	/	1.7
Cc1ccc(CNC(=O)C2CCC(=O)N(CCc3ccc(Cl)cc3)C2)s1 (stereo not drawn)	-0.1	-2	-27	-1.3	-1.8	/	4	0.8
O=C(Nc1nc(NC(=O)c2ccco2)n(-c2ccccc2)n1)c1ccccc1	-1.4	-23	2	/	-2.2	7%	89*	-11
CCOc1cccc(N(C(=O)CCC(=O)Nc2cc(C)on2)C(C(=O)NC(C)(C)C)c2ccc(OC)cc2)c1 (stereo not drawn)	-0.2	-2	16	4.9	5.8	/	3	4.2
O=C1C2C3C=CC(CO)(O3)C2C(=O)N1c1ccc(-c2ccccc2)cc1 (stereo not drawn)	3.6	3	-10	/	1.3	/	-3	-0.1
COC(=O)c1cc(C(=O)OC)cc(N2C(=O)CN=C2Nc2nc(C)cc(C)n2)c1	0.0	23	-6	/	2.2	24%	-4	-2.8
NCC12CC3CC(C1)CC(c1ccc(Br)cc1)(C3)C2	0.0	49	25	7.6	-0.4	7%	7	-2.0
Cc1ccc(Nc2nnc(SC3CCOC3=O)s2)c(C)c1 (stereo not drawn)	-0.3	2	-4	/	1.4	8%	-6	-2.2
CC(C)CCNc1cc(=O)n(C)c(=O)n1C	1.2	-4	-17	/	0.1	-9%	5	-0.6
COc1ccc(-c2c(C)oc3c(CN4CCCC(C)C4)c(O)ccc3c2=O)cc1OC (stereo not drawn)	/	1	-16	-1.5	-2.3	/	/	/
C=CCSc1nnc(NC(=O)c2ccc(S(=O)(=O)NCC3CCCO3)cc2)s1 (stereo not drawn)	0.0	3	-8	/	0.1	?	-4	7.7
O=C(CSc1nnc(Cc2ccccc2)o1)NCc1ccc2c(c1)OCO2	?	-34	-3	-1.9	-1.7	5%	-8	0.2
COc1ccc(S(=O)(=O)NC(C)C(=O)NCc2ccncc2)cc1Cl (stereo not drawn)	0.4	0	-19	-2.4	-2.0	/	1	0.8
Next part
SMILES	A1 inh	Calb FLC	T cruzi inh	MLL AF4-AF9 inh	RanGTP-Impb inh	Vif A3G	Beta apoptosis	LANA-H2B inh
COC(C[C@@H](O)C[C@H](O)[C@H](C)OCc1ccccc1)OC	1.2	-12	-29	2.4	-2.3	/	-8	3.0
COC(=O)C1=C(C(=O)OC)SC(=C2C(=S)C(C)(C)N(C(=O)CC(C)C)c3ccccc32)S1	-0.8	-5	19	?	-2.2	-1%	4	2.2
COc1ccc(S(=O)(=O)N(CCC#N)Cc2ccco2)cc1OC	-0.6	-7	4	3.2	8.8	-3%	-2	1.6
O=C(c1ccc2c(c1)OCO2)N1CCC2(CC1)Oc1ccc(F)cc1C(=O)C21CC(c2ccc(Cl)cc2)=NO1 (stereo not drawn)	0.0	-6	17	-10	0.7	-2%	0	-1.1
CC(C)NC(=O)C1CC(=O)N(c2ccc(F)c(Cl)c2)C1 (stereo not drawn)	-0.2	-7	-7	/	?	-3%	4	1.5
CCOC(=O)c1cnc(Nc2nc3ccccc3o2)nc1CSc1ncccn1	0.0	-1	7	/	5.5	/	17	-2.2
O=C1CCCC/C1=C\Nc1ccc(O)cc1	-0.1	-18	/	6.3	2.2	?	-7	-7.1
Cc1c(CC(=O)O)c(=O)oc2cc3occ(-c4ccccc4)c3cc12	-1.3	37	-10	-1.0	2.4	-1%	-1	3.4
CC(C)c1ccc(/C=C2\SC(=O)N(CC(=O)NCCCn3ccnc3)C2=O)cc1	-0.2	-14	48	8.9	-0.1	/	-19	0.7
CC(=O)c1cnc2sccn2c1=O	0.2	2	-11	-22	3.4	2%	-5	3.2
Cc1ccc(-c2nnc(N3CCN(C(=O)COc4cccc(C)c4)CC3)c3ccccc23)cc1	-0.4	36	9	5.1	0.0	-5%	4	-0.9
O=C(COC(=O)c1n[nH]c2ccccc12)Nc1ccc(Cl)cc1[N+](=O)[O-]	0.3	27	11	-2.1	8.0	7%	-6	-1.3
CC(C)CC(NC(N)=O)C(=O)Nc1ccc(Cl)c(Cl)c1 (stereo not drawn)	0.5	1	9	-0.6	1.4	-6%	-7	1.0
Cc1c(NC(=O)CSCc2ccc(Br)cc2)c(=O)n(-c2ccccc2)n1C	0.5	10	-10	-0.8	8.7	7%	1	-4.1
Cc1cccc(OCC(=O)OCC(=O)c2c(N)n(C)c(=O)n(C)c2=O)c1C	0.0	-1	4	/	0.1	-2%	-5	-3.4
COc1ccc(CCNC(=O)C(=O)NCCC2CCCCN2S(=O)(=O)c2ccccc2)cc1 (stereo not drawn)	-0.9	-6	6	0.9	-2.4	8%	0	/
CC(=O)c1cccc(NC(=O)CCOc2ccccc2)c1	0.1	-22	3	/	-2.0	3%	-2	0.5
O=C1NC2(CCCCCC2)N=C1c1ccc(Br)cc1	0.7	-2	1	-1.1	-2.0	-3%	-19	-0.3
